# Kir21 inh: Kir2.1 (mouse) channel inhibition; AID 1672; P35561; 310,000 compounds, 0.85% hits; B-score at 10 µM; HEK293-Kir2.1, FluxOR thallium flux fluorescence; stronger effect = lower value;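 active = fluorescence ratio B-score at or below minus 3 SD of library scores, with starting-brightness B-score within 2 SD, cut at about -4.2 in these data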;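 also: channel flux triggered by added potassium and thallium sulfate stimulus; B-score of peak minus minimum fluorescence over baseline after thallium stimulus; more negative B-score means stronger Kir2.1 block with less thallium influx; some compounds called inactive have numbers as strong as hits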
# Target sequence (P35561 whole entry, looked up): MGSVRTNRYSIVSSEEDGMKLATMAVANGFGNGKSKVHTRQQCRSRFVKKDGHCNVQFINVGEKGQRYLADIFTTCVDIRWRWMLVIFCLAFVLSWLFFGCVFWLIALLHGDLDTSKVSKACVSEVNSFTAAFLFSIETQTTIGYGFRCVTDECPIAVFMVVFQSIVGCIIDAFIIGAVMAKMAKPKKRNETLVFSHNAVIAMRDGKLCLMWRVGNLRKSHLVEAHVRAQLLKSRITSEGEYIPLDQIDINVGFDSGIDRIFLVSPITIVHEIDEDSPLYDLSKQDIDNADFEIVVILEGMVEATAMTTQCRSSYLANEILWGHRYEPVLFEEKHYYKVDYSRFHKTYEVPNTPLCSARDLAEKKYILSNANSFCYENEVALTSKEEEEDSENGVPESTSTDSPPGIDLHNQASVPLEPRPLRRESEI
# An asterisk follows results filed as active.
SMILES,Kir21 inh
Cc1oc(C(C)(C)C)cc1C(=O)NCC(=O)NCC(=O)O,-0.43
COc1ccc(-c2noc(CCC(=O)NC3CCN(Cc4ccccc4)CC3)n2)cc1,-2.2
C/C(=N\N1CCN(Cc2ccccc2)CC1)c1ccco1,0.62
Cc1cccc(-n2ccnc2SCC(=O)Nc2nccs2)c1,-1.3
Cc1noc(C)c1S(=O)(=O)Nc1ccc(C(=O)NC2CCCCC2C)cc1 (stereo not drawn),3.1
COc1ccc(OC)c(NC(=O)Cn2cc(C#N)c3ccccc32)c1,0.01
CCOCCCNC(=O)c1cc(Nc2ccc(OC)cc2OC)nc2ccccc12,0.18
COc1cccc(-c2nnc(SCc3ccc(C#N)cc3)n2Cc2ccco2)c1,-3
O=C(COC(=O)/C=C/c1ccccc1)Nc1cccc(Oc2ccccc2)c1,0.66
COc1ccc(-c2nnn(CC(=O)N(CCN3CCOCC3)C(C(=O)NC3CCCC3)c3ccco3)n2)cc1 (stereo not drawn),1.8
O=C(NCCN1CCCOC1=O)C(=O)NCCN1CCCOC1=O,0.2
O=C(O)c1ccc(-n2nnnc2SCc2ccccc2Br)cc1,1.4
CCOC(=O)N1CCN(C(=O)c2ccc(Cn3c(=S)[nH]c4cc(OCC)c(OCC)cc4c3=O)cc2)CC1,-0.25
COc1ccc(N(CC(=O)NCCC2=CCCCC2)S(=O)(=O)c2ccccc2)cc1OC,1.1
Nc1nc(N)c2ncc(C(=O)CCc3ccccc3)nc2n1,-0.1

# Four compounds picked at random from those above, as already listed:
SMILES,Kir21 inh
CCOCCCNC(=O)c1cc(Nc2ccc(OC)cc2OC)nc2ccccc12,0.18
COc1ccc(-c2nnn(CC(=O)N(CCN3CCOCC3)C(C(=O)NC3CCCC3)c3ccco3)n2)cc1 (stereo not drawn),1.8
Nc1nc(N)c2ncc(C(=O)CCc3ccccc3)nc2n1,-0.1
Cc1noc(C)c1S(=O)(=O)Nc1ccc(C(=O)NC2CCCCC2C)cc1 (stereo not drawn),3.1

# By substructure, those above with a COOH group (2)
SMILES,Kir21 inh
Cc1oc(C(C)(C)C)cc1C(=O)NCC(=O)NCC(=O)O,-0.43
O=C(O)c1ccc(-n2nnnc2SCc2ccccc2Br)cc1,1.4

# Next part.
SMILES,Kir21 inh
CN1CCN(C(=S)c2ccc(N(C)C)cc2)CC1,-1.2
Cc1ccc2c(c1)C1CC(C)(O2)N(c2cccc(C(=O)NCc3ccccn3)c2)C(=O)N1 (stereo not drawn),2.5
CC1CCN(c2c(NCC3CCC(C(=O)NC4CCCCCC4)CC3)c(=O)c2=O)CC1 (stereo not drawn),2.9
Cn1c(=O)[nH]c2sc3c(c2c1=O)CC(C)(C)OC3,0.38
COc1ccc(-c2nc3c(c(SCC(=O)N4CCOCC4)n2)Cc2c(CO)cnc(C)c2O3)cc1,1.4
CSC1=C(C#N)C(=O)NC(c2ccccc2O)S1 (stereo not drawn),-2
O=C(O)c1c(Cl)c(Cl)c(Cl)c(Cl)c1C(=O)N1CCOCC1,0.32
COc1ccccc1NC(=O)NCCCl,0.56
O=C(O)c1cccc(NC(=O)c2ccc3c(c2)C(=O)N(CC2CCCO2)C3=O)c1 (stereo not drawn),-1.4
CSCCC(NC(=O)c1ccc([N+](=O)[O-])cc1Cl)C(=O)OCC(=O)N1CCN(C(C)=O)CC1 (stereo not drawn),0.04
CCOC(=O)[C@@H]1[C@H]2COc3cc(OC)ccc3[C@@H]2N2C(=O)N(c3ccc(Cl)cc3)C(=O)[C@]12C,0.31
CC1Cc2ccccc2N1C(=O)C12CCC(C)(C(=O)C1)C2(C)C (stereo not drawn),-1.1
CCOc1ccc(NC(=O)c2cccs2)c([N+](=O)[O-])c1,-1.4
CCC(CO)NCc1ccc(-c2ccccc2)cc1 (stereo not drawn),-0.44
CCn1ncc(CN2CCN(C(=O)Nc3ccccc3C(=O)OC)CC2)c1C,0.43

# Of the compounds above, three contain a cyano group.
SMILES,Kir21 inh
COc1ccc(OC)c(NC(=O)Cn2cc(C#N)c3ccccc32)c1,0.01
COc1cccc(-c2nnc(SCc3ccc(C#N)cc3)n2Cc2ccco2)c1,-3
CSC1=C(C#N)C(=O)NC(c2ccccc2O)S1 (stereo not drawn),-2

# (next part)
SMILES,Kir21 inh
COc1ccccc1CNC(=O)COc1cccnc1[N+](=O)[O-],-0.78
CCOC(=O)N1CCN(C(=O)CSc2ccc3nnc(-c4cccnc4)n3n2)CC1,-0.66
COc1ccc2nc(NC(=O)CSCc3c(C)noc3C)sc2c1,1.3
CN(Cc1ccccc1)C(=O)COC(=O)C1=NNC(=O)CC1,-0.11
COC(=O)c1ccc2c(c1O)C(=O)c1ccccc1C2=O,0.17
CCOC(=O)c1cnc(SC)nc1Oc1cccc(NC(=O)c2cccc(Cl)c2Cl)c1,-0.02
COc1ccc(NC(=O)C(=O)NCCN2CCN(C(=O)c3ccco3)CC2)cc1,0.24
CC(C)NC(=O)c1ccc2c(c1)N(CC(=O)N1CCCC1)C(=O)C(C)(C)O2,-0.99
Cc1nc(N2CCN(c3ccccc3)CC2)nc2c1C(=O)CCC2,0.23
O=C(O)C/C(=C\c1cc2c(cc1Br)OCO2)c1nc2ccccc2s1,0.7
O=C(NCc1ccccn1)NC12CC3CC(CC(C3)C1)C2,-0.32
COC(=O)c1ccc(NC(=O)CSc2nccn2CCc2ccccc2)cc1,0.02
Cn1c(SCC(=O)N2CCOCC2)nnc1-c1ccccc1,0.01
O=C1[C@@H]2Cc3c([nH]c4ccccc34)C(c3ccccc3)N2C(=O)CN1C1CCN(Cc2ccccc2)CC1 (stereo partly drawn),-1.6
COC(=O)c1nn(-c2ccccc2)c(Cl)c1/C=N/OCc1c(Cl)cccc1Cl,-0.17
CCOc1ccc(NC(=O)Cc2nnc(SCC(=O)N3CCOCC3)n2C)cc1,0.81
O=C(CCc1nc(-c2ccccc2)no1)Nc1cc(C(F)(F)F)ccc1Cl,0.07
COC(=O)C1=C(C)N(c2ccc(C)c(C)c2)/C(=C/c2ccco2)C1=O,-2.8
CS(=O)(=O)N(Cc1ccccc1)c1ccc(C(=O)N2CCOCC2)cc1,-0.27
Cc1cc(C)c2c(N)c(C(=O)Nc3c(C)n(C)n(-c4ccccc4)c3=O)sc2n1,0.33
COc1cc(NS(=O)(=O)N2CCCC2)cc(OC)c1OC,0.47
Cc1ccc(N2C(=O)CC(NNC(=O)Cc3ccc(F)cc3)C2=O)cc1Cl (stereo not drawn),1.6
Cc1ccc(-n2c(-c3nn(C)cc3Cl)n[nH]c2=S)cc1,-0.52
O=C(COC(=O)c1cc(Cl)nc2ccccc12)c1ccc(Cl)cc1,0.91
CCOP(=O)(O)c1ccccc1OCCCCCOc1ccccc1P(=O)(O)OCC,-1.4
COc1ccc(/C=C/C(=O)NC(=S)NNC(=O)c2cc(OC)c(OC)c(OC)c2)cc1OC,-0.95
COc1ccc(-n2c(Cc3cccn3C)nnc2SCC(=O)NCc2ccc(F)cc2)cc1,-1.4
CCCCc1cc(=O)oc2c(C)c(OCC(=O)NCCN3CCOCC3)ccc12,-0.7
Cc1cccc(NC(=O)NNC(=O)COc2ccc([N+](=O)[O-])cc2)c1C,-0.07
O=c1sc2ccccc2n1Cc1ccccc1,0.37
O=S(=O)(c1ccc(Cl)s1)N1CCC2(CC1)OCCO2,0.58
NC(=O)CC(NC(=O)Cc1cccc2ccccc12)c1ccc(N2CCC(Br)CC2)c([N+](=O)[O-])c1 (stereo not drawn),-1.3
CCOC(=O)c1c(NC(=O)c2cccnc2)sc(C(C)=O)c1C,1
CC(C)(C)S(=O)(=O)c1cnc(N2CCCCC2)nc1N,1
COc1ccc(/C=N/NC(=O)c2ccncc2)c(OC)c1,-1.3
Cc1ccc[n+](CC(=O)N2CCCc3ccccc32)c1,-0.07
Cc1nc(Br)c(Br)c(C)c1Br,0.63
COc1cc(C2NC(=S)NC(C)=C2C(=O)Nc2ccc(C)cc2)ccc1O (stereo not drawn),-0.21
CCNC(=O)Nn1c(-c2ccccc2)nc2ccccc2c1=O,0.09
CCCCN(CC)S(=O)(=O)N1CCC(C(=O)NCc2ccc(F)cc2)CC1,-0.56
Cn1cc(C(=O)NC2CCCCC2)c(=O)c2cc(S(=O)(=O)N3CCOCC3)ccc21,-0.01
CCCS(=O)(=O)c1csc(C(=O)OC)c1N,-0.67
CCOC(=O)c1c(-c2ncc(C(F)(F)F)cc2Cl)noc1C,0.18
CCn1nnc(-c2ccccc2NC(=O)c2cccc(-n3cnnn3)c2)n1,0.91
CCCC1COC(Cn2cncn2)(c2ccc(C)cc2)O1 (stereo not drawn),-0.15
CC1CCN(CCCNC(=O)c2ccc3c(=O)n(CCc4ccccc4)c(=O)[nH]c3c2)CC1,0.3
NC(=O)c1sc2nc(-c3ccccc3)ccc2c1N,1.1
COc1cccc(C(=O)NC(=S)Nc2ccccc2N2CCCCC2)c1,-0.69
Cc1cc(C)n2ncc(C(=O)Nc3ccc(Cl)c(Cl)c3)c2n1,-0.71
O=C(COC(=O)c1ccncc1)NC(=O)C1CCCCC1,-0.81
Cc1ccc(NC(=O)n2ncc3c(C)cccc32)c(C)c1,-1.9
O=C(Nc1cccs1)Nc1ccccc1Cl,0.39
O=C(Nc1nc(-c2ccc(F)c(F)c2)cs1)c1cnccn1,0.85
COc1ccc(N(CC(=O)Nc2ccc(S(=O)(=O)N3CCOCC3)cc2)S(=O)(=O)c2ccc(F)cc2)cc1,0.94
Cc1cc(C(=O)N/N=C/c2c(C)nn(-c3ccccc3)c2C)c(C)o1,-1.6
COC(=O)/C(C#N)=C/c1c(N2CCN(c3ccccc3)CC2)nc2ccccn2c1=O,1.1
CC1CC(=O)NN=C1c1ccc(N)c([N+](=O)[O-])c1 (stereo not drawn),0.11
CNC(=O)c1[nH]nc2c1CCc1cc(OC)ccc1-2,-0.05
Cc1ccc(Cl)cc1NC(=O)CCC(=O)NCc1ccco1,-0.61
Cc1cc(C)n2nc(-c3ccc(Br)cc3)cc2n1,0.49

# 2 entries from above in another layout.
molecule	Kir21 inh
O=C(Nc1nc(-c2ccc(F)c(F)c2)cs1)c1cnccn1	0.85
COc1ccc(N(CC(=O)Nc2ccc(S(=O)(=O)N3CCOCC3)cc2)S(=O)(=O)c2ccc(F)cc2)cc1	0.94

# Next part
SMILES,Kir21 inh
COC(=O)C(NC(=O)c1ccccc1)c1ccccc1 (stereo not drawn),-0.3
CSc1ccc(CCNC(=O)CCc2nnc3ccc(N4CCCCC4)nn23)cc1,-0.51
CCOc1ccc(NC(=O)CN(C)C(=O)c2ccc(N3CCCC3)c([N+](=O)[O-])c2)cc1OCC,4.6
CCO[C@@H]1OC(C(=O)Nc2ccccc2)=C[C@H](c2ccc3c(c2)OCO3)[C@H]1CCCO,0.87
COC(=O)[C@@]1(Cc2ccccc2)[C@H]2c3cc(C(=O)N4CCCC4)n(CCSCCO)c3C[C@H]2CN1C(=O)c1ccccc1,0.23
O=[N+]([O-])c1ccc(Oc2ccc(OCc3ccccc3)cc2)nc1,0.34
CS(=O)(=O)N(CC(=O)N/N=C/c1ccccn1)c1ccc(Oc2ccccc2)cc1,1.4
CCOC(=O)CCNC(=O)N1CCCC(C(=O)c2ccccc2SC)C1 (stereo not drawn),0.03
COc1ccc(OC)c(S(=O)(=O)N2CCN(C(=O)c3ccco3)CC2)c1,1
Cc1cc(-c2ccccc2)nc(N/N=C/c2ccc([N+](=O)[O-])cc2)n1,0.6
CCCc1nc(NCc2ccncc2)c2nnn(Cc3ccccc3F)c2n1,1.2
C/C(=N\NC(=O)CN1CCN(S(=O)(=O)c2ccc(C)cc2)CC1)c1ccncc1,-0.57
CCc1nnc(NC(=O)CCN(c2cc(C)cc(C)c2)S(=O)(=O)c2ccc(Cl)cc2)s1,-1.9
COC(=O)c1c(NC(=O)CSc2ncnc3ccccc23)sc(C)c1C,2.5
CCn1c(Cc2ccccc2)nnc1SCC(=O)Nc1ccc(C)cc1,0.07
S=C(Nc1ccc(Oc2ccccc2)cc1)N1CCOCC1,0.05
CCCC(=O)NC(NC1CCS(=O)(=O)C1)C(Cl)(Cl)Cl (stereo not drawn),-0.01
Cc1ccccc1C(=O)NC(=S)NCC1CCCO1 (stereo not drawn),-1.1
Cc1cc(=O)oc(C)c1C(=O)NCCC1=CCCCC1,-1.5
CCC(=O)NC1(Cc2ccc(O)cc2)CCCCC1,0.01
CCCCNC(=O)/C(=C\c1ccc([N+](=O)[O-])o1)NC(=O)c1ccccc1,-0.14
O=C(CN1CCC(C(=O)c2ccc3c(c2)OCCO3)CC1)Nc1ccccc1F,-0.05
Cc1ccc(C(=O)N2CCN(C(=O)N3CCOCC3)CC2)cc1,-0.51
Oc1ccc(-c2csc(Nc3cccc4ccccc34)n2)cc1O,-1.5
O=C(CNCc1ccccc1)Nc1ccc(Cl)cc1,0.56
CN(C(=O)CSc1nc(-c2ccccc2)cs1)C1CCS(=O)(=O)C1 (stereo not drawn),0.02
c1ccc(Cc2nnc3sc(-c4ccc5c(c4)OCO5)nn23)cc1,-0.72
COc1ccc(N2CCN(C(=S)Nc3cc(C)ccc3C)CC2)cc1,-0.01
O=C(COC(=O)C12CC3CC(CC(C3)C1)C2)Nc1ccc(OC(F)F)cc1,0.98
CCOc1ccc(CCNC(=O)CN2C(=O)CCSc3ccccc32)cc1,-1.6
O=C(NCC(c1cccnc1)N1CCN(c2ccccc2)CC1)c1ccc2c(c1)OCO2 (stereo not drawn),1.1
Cn1c(=O)[nH]c(=O)c2c1nc(Br)n2CCOc1ccccc1,1.4
Cc1ccc(S(=O)(=O)N(C)CCCC(=O)n2nc(C)cc2C)cc1,0
Cc1cc(NC(=O)c2ccc(C#N)cc2)on1,0.75
COC(=O)c1cnc(N2CCCN(S(=O)(=O)c3ccc(C(F)(F)F)cc3)CC2)nc1C(F)(F)F,-1.2
COc1ccc(N(C(C)C(=O)NC2CCCCCC2)S(C)(=O)=O)cc1 (stereo not drawn),-2.6
CC1=NN(c2ccccc2)C(=O)C1/C=C1\NC(=S)NC1=O (stereo not drawn),0.06
CC(=O)Nc1ccc(S(=O)(=O)NC(C(=O)O)C2=CCC=CC2)cc1 (stereo not drawn),-0.01
CN(Cc1ccccc1)S(=O)(=O)c1ccc(NS(C)(=O)=O)cc1,0.57
Fc1ccc(-c2cc(-c3nnc4n3CCCCC4)c3ccccc3n2)cc1,-0.2
Cn1ncc(C#N)c1/N=C/N1CCCCCC1,0.94

# Bioassay records from PubChem BioAssay.

# A portion of the library, and most or all hits are left out here.
